Methyltransferases: Primary Screen for Target Class Profiling of Small Molecule Inhibitors of Methyltransferases | calls only at 40 µM | actives 3.9% (n = 25,000) | AID 1745853, 2022 | purified enzyme, MTase-Glo SAH luminescence; active compounds read low; active = -50% or lower on at least one of six enzymes; inconclusive = the cases between; inactive = as a rule above -30% on all six;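 also: enzymes were COMT GAMT GNMT HNMT NNMT and PNMT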
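Each enzyme was reacted with SAM and its substrate, with compounds tested once at 40 uM; SAH formed was read by MTase-Glo luminescence.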
Calls only; i = inactive; u = inconclusive; + = active, no number. % is scaled to controls: 0 for no effect and ±100 for the full control effect. The list is partial (hit frequency here may not be typical).

SMILES	Methyltransferases
Cc1ccc(C)c(Cn2nc3n(Cc4ccccc4)c(=O)c4ccc(C(=O)NC(C)C)cc4n3c2=O)c1	i
NC(Cc1cccc(-c2ccccc2CP(=O)(O)O)c1)C(=O)O (stereo unspecified)	i
CCN(Cc1ccncc1)C(=O)c1coc(COc2cccc(C(F)(F)F)c2)n1	i
CCCC1c2cccn2CCN1C(=O)Nc1ccc(C)cc1C (stereo unspecified)	i
COc1ccc(CNC(=O)C2(C)Cn3cnc(C(=O)NCc4ccc(F)cc4)c3C(=O)N2C2CC2)cc1 (stereo unspecified)	i
CN(Cc1cc(C2CC2)on1)Cc1nnc(C2CC(N)C2)n1C1CC1 (stereo unspecified)	i
CC(C)CCNC(=O)C1(C)Cn2nc(C(=O)NCc3ccc(F)cc3)cc2C(=O)N1C (stereo unspecified)	i
CC1=C(COC2OC(CO)C(O)C(O)C2O)C(C(CO)C(=O)O)CC1 (stereo unspecified)	i
CCN1CCN(CCNC(=O)Cn2ccc3cc(S(=O)(=O)N4CCCCC4)ccc32)CC1	i
Cc1ccccc1CC(=O)N1CC(F)(F)C[C@H]1c1nnc(C2CC2)o1	i
CCOC(=O)c1cc2n(n1)CC(C)(C(=O)NC1CCCCC1)N(Cc1ccc(OC(C)C)cc1)C2=O (stereo unspecified)	i
CC(=O)O[C@@H]1CC2C(C)(C)C(=O)C=C[C@]2(C)C2CC[C@@]3(C)[C@H](c4ccoc4)OC(=O)[C@H]4O[C@]43[C@@]21C (stereo partly specified)	i
COc1cccc(CN2C(=O)c3cc4occc4n3CC2(C)C(=O)NC2CCCCCC2)c1 (stereo unspecified)	i
COc1cc(Nc2ccc([N+](=O)[O-])cc2C(=O)O)cc2ccccc12	u
O=C(NC1CCN(CC(F)(F)F)CC1)c1ccc(-c2cccc(F)c2)nc1	i
CCn1c(=O)n(CC)c2cc(S(=O)(=O)N3CCN(c4cc(Cl)ccc4C)CC3)ccc21	i
COc1cccc(-c2ccc(C(=O)NCCNC(=O)c3ccccc3OC)cc2)c1	i
COCc1nnc2n1CCC(NC(=O)CCc1c(C)noc1C)CC2 (stereo unspecified)	i
CO[C@H]1C[C@@H](O)C12CCN(C(=O)CCc1ccc(-c3cccs3)o1)CC2	i
CC1(C(=O)NC2CCCCCC2)Cn2c(cc3occc32)C(=O)N1CCCc1ccccc1 (stereo unspecified)	i
COc1ccc(C(=O)N2CCN(c3nnc4ccccn34)CC2)cc1OC	i
Cc1cc(C)cc(N2C(=O)c3cc4oc(C)cc4n3CC2(C)C(=O)NC2CCCCCC2)c1 (stereo unspecified)	i
CCOC(=O)c1cc2n(n1)CC(C)(C(=O)NCc1ccc(C)cc1)N(CCc1ccc(Cl)cc1)C2=O (stereo unspecified)	i
C=C1C[C@@]23CCC4[C@@](C)(CCC[C@@]4(C)C(=O)OC)C2CC[C@@H]1C3 (stereo partly specified)	i
O=C1CN(Cc2ccccc2F)S(=O)(=O)c2ccccc2N1Cc1ccc(Cl)cc1	i

Other compounds follow.
SMILES	Methyltransferases
Cc1ccc(Cn2nc3n(CC(C)C)c(=O)c4ccccc4n3c2=O)cc1	i
O=C(CC1CCOC2(CCN(S(=O)(=O)c3ccccc3)CC2)C1)N1CCOCC1 (stereo unspecified)	i
CC(C)OCCCNC(=O)c1cc(C2CC2)nc2onc(C3CCNC3)c12 (stereo unspecified)	i
C=C1/C(=C/C=C2\CCC[C@]3(C)[C@@H]([C@H](C)CC[C@@H](O)C(C)(C)O)CC[C@@H]23)C[C@@H](O)C[C@@H]1O	i
CC1(C(=O)NC2CCCCCCC2)Cn2c(cc3sccc32)C(=O)N1C1CCCCCC1 (stereo unspecified)	i
CS(=O)(=O)CCNCc1nc(-c2ccc3ncnc(Nc4ccc(OCc5cccc(F)c5)c(Cl)c4)c3c2)cs1	u
COc1cc(N2CCN(C)CC2)ccc1Nc1nccc(-c2cn(C)c3cnccc23)n1	i
CC(C)n1cc(C(=O)NCc2cccnc2Oc2ccc(F)cc2F)cn1	i
CCOC(=O)c1cc2n(n1)CC(C)(C(=O)NC1CCCCC1)N(c1cc(OC)cc(OC)c1)C2=O (stereo unspecified)	i
C=C[C@@](C)(CCC=C(C)C)O[C@@H]1O[C@H](CO[C@@H]2OC[C@H](O)[C@H](O)[C@H]2O)[C@@H](O)[C@H](O)[C@H]1O	i
O=C(O)c1ccc(C2Nc3c(F)cc(F)cc3C3C=CCC32)cc1 (stereo unspecified)	i
COc1ccc(OC)c(CCN2C(=O)c3cc4ccccc4n3CC2(C)C(=O)NCc2ccccc2OC)c1 (stereo unspecified)	i
Cc1noc(-c2cccs2)c1C(=O)NCCC(c1ccccc1)c1ccccc1	i
COc1ccc(-c2nnc3n(Cc4ccc(C)cc4)c(=O)c4ccccc4n23)cc1	i
CCOCCCN1C(=O)c2cc3ccccc3n2CC1(C)C(=O)NCCC(C)C (stereo unspecified)	i
Cc1ccc(-c2nccc(N3CCC(O)C3)n2)c(C)c1 (stereo unspecified)	i
Cc1cccc(CC(=O)N2CCCCC2c2nc(C3CC3)n[nH]2)c1 (stereo unspecified)	i
CC(C)CCNC(=O)C1(C)Cn2c(ccc2-c2ccco2)C(=O)N1CCc1ccc(Cl)cc1 (stereo unspecified)	i
CN(CCc1ccccc1)C(=O)c1cc(-c2ccc[nH]2)n[nH]1	u
O=C(NC1CC(=O)N(CCCc2ccccc2)C1)c1ccoc1 (stereo unspecified)	i
CSc1ccc(CN2C(=O)c3cc4ccccc4n3CC2(C)C(=O)NCCCOC(C)C)cc1 (stereo unspecified)	i
CC(C)c1ccc(NC(=O)CN(C)S(=O)(=O)c2ccc3[nH]c4c(c3c2)CCCC4)cc1	i
CCCN1C(=O)c2c(C(=O)NCc3ccc(OC)c(OCC)c3)ncn2CC1(C)C(=O)NC1CCCC1 (stereo unspecified)	i
CN1CCN([C@H]2CCN(Cc3ccc4occc4c3)C[C@H]2CCC(=O)O)CC1	i
O=C(c1n[nH]c2ccccc12)N1CC2CC(C1)[C@H]1CCCC(=O)N1C2 (stereo partly specified)	i

Following part.
SMILES	Methyltransferases
COCCCNC(=O)Cn1c(=O)oc2cc(S(=O)(=O)N3CC(C)CC(C)C3)ccc21 (stereo unspecified)	i
COc1ccccc1-c1cccc(C(=O)N2CCN([S+](=O)([O-])c3c(C)noc3C)CC2)c1	i
CC(=O)OC1C[C@]2(C)C(O)CC(C)=C[C@H](OC(=O)c3ccc(O)cc3)C2[C@]1(O)C(C)C (stereo partly specified)	i
CCc1ccc(-c2cc3n(n2)CC(C)(C(=O)NC2CCCCC2)N(CCN(C)C)C3=O)cc1 (stereo unspecified)	i
c1ccc(-c2nc(C3CC3)no2)c(OC2CCNC2)c1 (stereo unspecified)	i
CC(C)CCCC1CN(C(=O)c2c(O)cccc2O)CCO1 (stereo unspecified)	i
COc1ccc([C@H]2Cc3cccc(O)c3C(=O)O2)cc1	i
CC(=O)Nc1ccc(Nc2nc3c(S(=O)(=O)c4ccc(Br)cc4)nnn3c3ccccc23)cc1	i
COc1ccccc1CCN1C(=O)c2cc(-c3ccccc3)nn2CC1(C)C(=O)NCc1ccccc1 (stereo unspecified)	i
COc1ccc2c(c1)c(NC(C)=O)c1n2CC(C)(C(=O)NC2CCCCCC2)N(C2CCCC2)C1=O (stereo unspecified)	i
C1CCN2CC3C[C@@H](CN4CCCC[C@@H]34)[C@H]2C1	i
Cc1ccc(CCNC(=O)CNC(=O)C2(C)Cn3c(cc4ccccc43)C(=O)N2C)cc1 (stereo unspecified)	i
CCC(C)NC(=O)c1ccc2c(=O)n(CC(C)C)c3nn(Cc4cccc(Cl)c4)c(=O)n3c2c1 (stereo unspecified)	i
CC1=C2C(=O)C=C(CO)C2C2OC(=O)C(CS(=O)(=O)O)C2C(OC(=O)Cc2ccc(O)cc2)C1 (stereo unspecified)	i
Cc1ccc(COc2ccc3c(-c4ccccc4)cc(=O)oc3c2)cc1	i
CC(C)CNC(=O)c1ccc2c(=O)n(CC(C)C)c3nn(Cc4ccc(Cl)cc4)c(=O)n3c2c1	i
O=C(c1ccc(F)cc1)N1CCC(OCCOc2cccnc2)CC1	i
O=C(NCCc1ccccc1)c1ccc2c(c1)n(Cc1cccc(F)c1)c(=O)c1ccnn12	i
C=CCn1c(=O)c2ccc(C(=O)NC(C)C)cc2n2c(=O)n(CC(=O)Nc3ccc(C)cc3)nc12	i
N#Cc1ccc(C(=O)N2CCOC[C@H](Oc3ccc(C(F)(F)F)cc3)C2)cc1	i
Cc1ccccc1C(=O)N[C@H]1[C@H](O)[C@H](O)C[C@@H]1c1ccc(N2CCOCC2)nc1	i
CC(C)OCCCNC(=O)C1c2c(n(C)c3ccccc23)SCC(=O)N1Cc1cccs1 (stereo unspecified)	i
COCC(=O)N1CC2(CCCCC2)CC1COc1ccc(OC)cc1 (stereo unspecified)	i
Nc1ncnc2c1c(I)cn2C1OC(CO)C(O)C1O (stereo unspecified)	+
Cc1cnc(Nc2ccc(F)cc2Cl)nc1-c1c[nH]c(C(=O)N[C@H](CO)c2cccc(Cl)c2)c1	u

Further entries.
SMILES	Methyltransferases
CC1(C)CC[C@]2(C(=O)O)CC[C@]3(C)C(=CCC4[C@@]5(C)C[C@@H](O)[C@H](O)C(CO)(CO)C5CC[C@]43C)C2[C@@H]1O (stereo partly specified)	+
Cc1c(C(=O)N(C)Cc2cc(-c3cccnc3)no2)oc2c(F)cccc12	i
COc1cc(O)cc(OC2OC(CO)C(O)C(O)C2O)c1 (stereo unspecified)	u
CC1(C(=O)NC2CCCC2)Cn2c(cc3ccccc32)C(=O)N1Cc1ccco1 (stereo unspecified)	i
C=C[C@@H]1[C@H](O[C@@H]2O[C@H](CO)[C@@H](O)[C@H](O)[C@H]2O)OC=C(C(=O)O)[C@H]1CCOC(=O)/C=C/c1ccc(O)c(O)c1	i
O=C([C@@H]1C[C@H](F)CN1C(=O)CCCc1ccccc1)N1CCCCC1	i
Clc1ccc(-c2cnc3n2C[C@H](CNC2CCCC2)OC3)cc1	i
CC(C(O)c1ccccc1)N(C)CCOC(c1ccccc1)c1ccccc1 (stereo unspecified)	i
CCCC1c2ccc(C)n2CCN1C(=O)Nc1ccccc1C(F)(F)F (stereo unspecified)	i
C[C@]1(CO)[C@H]2Cc3sc(-c4ccsc4)nc3[C@@H](CC(=O)NCc3ccco3)[C@]2(C)CC[C@H]1O	i
Cc1cc(C)cc(OCC(=O)Nc2ccc3c(c2)C(=O)c2ccccc2C3=O)c1	i
COc1ccc(N2C(=O)CSc3c(c4ccccc4n3C)C2C(=O)NCCCOC(C)C)c(OC)c1 (stereo unspecified)	i
CCC(C)NC(=O)c1ccc2c(=O)n(C)c3nnc(SCc4ccccc4F)n3c2c1 (stereo unspecified)	i
Cc1ccc(C(=O)CSc2nnc3n(CC(C)C)c(=O)c4ccc(C(=O)NC(C)C)cc4n23)cc1	i
CCN(CC)CCCNC(=O)CCc1nnc2n(Cc3ccc(Cl)cc3)c(=O)c3ccccc3n12	+
CN(C)CCNC(=O)c1cccn2c(=O)c3cc4ccccc4cc3nc12	+
C=C(C)[C@@H](C)[C@H]1O[C@]23C[C@]4(CO2)C(CCC2[C@@]5(C)CC[C@H](O[C@@H]6OC[C@H](O)[C@H](O[C@@H]7O[C@H](CO)[C@@H](O)[C@H](O)[C@H]7O)[C@H]6O[C@@H]6O[C@@H](CO)[C@H](O)[C@H]6O)C(C)(C)C5CC[C@]24C)C3[C@@](C)(O)[C@@H]1OC(C)=O (stereo partly specified)	i
CCCSCCCN1C(=O)c2cc3sccc3n2CC1(C)C(=O)NC1CCCCCCC1 (stereo unspecified)	i
O=C1c2cc3occc3n2CC(C(=O)NC2CCCCCCC2)(c2ccccc2)N1Cc1ccc(F)cc1 (stereo unspecified)	i
Cc1ccc(C)c(Cn2nc3n(C)c(=O)c4ccc(C(=O)NCC(C)C)cc4n3c2=O)c1	i
CN1CCN(c2ccc(-c3cc4c(ccn4C)c(C(=O)NCCC(N)=O)n3)cc2)CC1	i
CC1CCN(S(=O)(=O)c2ccc3c(ccn3CC(=O)NCc3ccc4c(c3)OCO4)c2)CC1	i
COc1ccc(Nc2nc3c(S(=O)(=O)c4ccc(F)cc4)nnn3c3ccccc23)c(OC)c1	i
CCOC(=O)c1cc2n(n1)CC(C)(C(=O)NCCCOC)N(c1ccccc1C)C2=O (stereo unspecified)	i
O=C(NC1CC1)c1nc(-c2cccnc2)c2cnccn12	i

Copied from above, 15 compounds:
SMILES	Methyltransferases
Cc1ccc(C)c(Cn2nc3n(Cc4ccccc4)c(=O)c4ccc(C(=O)NC(C)C)cc4n3c2=O)c1	i
NC(Cc1cccc(-c2ccccc2CP(=O)(O)O)c1)C(=O)O (stereo unspecified)	i
CCN(Cc1ccncc1)C(=O)c1coc(COc2cccc(C(F)(F)F)c2)n1	i
CCCC1c2cccn2CCN1C(=O)Nc1ccc(C)cc1C (stereo unspecified)	i
COc1ccc(CNC(=O)C2(C)Cn3cnc(C(=O)NCc4ccc(F)cc4)c3C(=O)N2C2CC2)cc1 (stereo unspecified)	i
CN(Cc1cc(C2CC2)on1)Cc1nnc(C2CC(N)C2)n1C1CC1 (stereo unspecified)	i
CC(C)CCNC(=O)C1(C)Cn2nc(C(=O)NCc3ccc(F)cc3)cc2C(=O)N1C (stereo unspecified)	i
CC1=C(COC2OC(CO)C(O)C(O)C2O)C(C(CO)C(=O)O)CC1 (stereo unspecified)	i
CCN1CCN(CCNC(=O)Cn2ccc3cc(S(=O)(=O)N4CCCCC4)ccc32)CC1	i
Cc1ccccc1CC(=O)N1CC(F)(F)C[C@H]1c1nnc(C2CC2)o1	i
CCOC(=O)c1cc2n(n1)CC(C)(C(=O)NC1CCCCC1)N(Cc1ccc(OC(C)C)cc1)C2=O (stereo unspecified)	i
CC(=O)O[C@@H]1CC2C(C)(C)C(=O)C=C[C@]2(C)C2CC[C@@]3(C)[C@H](c4ccoc4)OC(=O)[C@H]4O[C@]43[C@@]21C (stereo partly specified)	i
COc1cccc(CN2C(=O)c3cc4occc4n3CC2(C)C(=O)NC2CCCCCC2)c1 (stereo unspecified)	i
COc1cc(Nc2ccc([N+](=O)[O-])cc2C(=O)O)cc2ccccc12	u
O=C(NC1CCN(CC(F)(F)F)CC1)c1ccc(-c2cccc(F)c2)nc1	i

Assay outcomes deposited in PubChem by National Center for Advancing Translational Sciences (NCATS).
